Compound activity from PubChem.
D2 agonist: agonists of human D2 dopamine receptor (beta-arrestin). P14416. AID 624465. activation, % (concentration not given with the values). 360,000 tested, 0.084% active. DiscoveRx PathHunter D2 beta-arrestin, luminescence, 90 min; 100% = 57 uM dopamine signal; in the data active = activation above about 40%; inconclusive = about 15% to 40%; inactive = below about 15%; further: compound concentration not given in the record; the text of the record calls up to 30% inactive
Target sequence (P14416 whole entry, looked up): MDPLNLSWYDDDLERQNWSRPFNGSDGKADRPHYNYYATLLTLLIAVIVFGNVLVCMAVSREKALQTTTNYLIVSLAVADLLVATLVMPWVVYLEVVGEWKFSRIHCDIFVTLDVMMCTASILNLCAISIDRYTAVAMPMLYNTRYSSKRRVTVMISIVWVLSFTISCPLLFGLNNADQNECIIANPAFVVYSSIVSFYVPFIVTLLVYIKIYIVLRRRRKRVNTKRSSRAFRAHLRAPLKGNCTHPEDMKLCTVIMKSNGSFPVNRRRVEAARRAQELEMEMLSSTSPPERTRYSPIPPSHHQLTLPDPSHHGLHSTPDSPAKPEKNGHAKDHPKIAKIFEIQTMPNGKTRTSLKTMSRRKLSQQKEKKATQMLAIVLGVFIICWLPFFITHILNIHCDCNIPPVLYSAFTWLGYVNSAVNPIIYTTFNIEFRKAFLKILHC
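Agonist mode: compounds alone added to overnight-plated D2 PathHunter cells for 90 min at 37 C, with 57 uM final dopamine (EC100) defining full response. Beta-arrestin recruitment detected by chemiluminescent reagent, read after 1 h at ambient temperature.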
PINK1 modulator: modulators of PINK1 expression | PINK1 immunofluorescence, high-content cytometry, 24 h | Potency, µM (top dose mostly 76.6 µM), without a hit: at the highest dose activation (PINK1 increase), usual class: activators | 410,000 tested, 0.2% active; active = well fitted activation curve with a large enough effect; inconclusive = small, poorly fitted or top-dose-only effect; inactive = flat fitted curve, though single readings scatter; cell line not stated here;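 further: potency means the concentration at half of the fitted maximal effect; % of control where 0% means no effect; nearly all actives have a fitted effect of over 65% in size; a mitochondrial uncoupler was the plate control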
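A stable cell line was treated with compounds at 5 concentrations for 24 hours, with CCCP as control. PINK1 levels and mitochondrial localization were measured by immunofluorescence with mitochondrial, cell and nuclear markers after fixation, read by laser-scanning cytometry.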
TRPML1 ag: activates the human TRPML1 channel; activation, % (test concentration not listed); 410,000 tested, 0.12% active; Q9GZU1; TRPML1-expressing cells, Ca2+ dye fluorescence, FDSS; host cell line not named in the record; reference of the full effect not given here; AID 624414; in the data active = activation above about 50%; inconclusive = about 30% to 50%; inactive = below about 30%; further: 0% is about no effect; the text of the record puts the active cut at 80%
Target sequence (Q9GZU1 whole entry, looked up): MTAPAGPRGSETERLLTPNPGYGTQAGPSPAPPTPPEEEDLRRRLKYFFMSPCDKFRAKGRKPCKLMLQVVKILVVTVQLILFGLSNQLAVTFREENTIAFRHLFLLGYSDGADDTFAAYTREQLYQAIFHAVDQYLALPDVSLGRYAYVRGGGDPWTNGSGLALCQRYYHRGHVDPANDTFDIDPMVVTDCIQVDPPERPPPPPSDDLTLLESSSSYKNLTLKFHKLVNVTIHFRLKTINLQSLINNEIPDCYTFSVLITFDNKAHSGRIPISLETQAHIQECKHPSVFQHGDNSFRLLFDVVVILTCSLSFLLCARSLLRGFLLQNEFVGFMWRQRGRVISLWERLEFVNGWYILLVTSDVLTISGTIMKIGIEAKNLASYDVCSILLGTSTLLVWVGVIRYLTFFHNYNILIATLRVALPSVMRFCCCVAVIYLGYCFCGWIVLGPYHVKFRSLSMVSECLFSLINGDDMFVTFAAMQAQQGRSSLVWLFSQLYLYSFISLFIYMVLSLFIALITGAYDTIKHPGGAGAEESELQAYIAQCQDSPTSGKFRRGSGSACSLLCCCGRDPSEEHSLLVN
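In this qHTS format, compounds were pin-transferred onto Ca8-dye-loaded TRPML1-DL cells induced with Tet overnight, and intracellular Ca2+ fluorescence was recorded kinetically for 110 s after a 10 s baseline. A subsequent 4uM final 54-4 (EC80) addition followed by a second 110 s read served as the antagonist phase.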
CtBP-E1A blk: CtBP/E1A binding inhibition. AID 651724. activity change, % (no concentration beside the values). 340,000 tested, 0.49% active. AlphaScreen GST-E1A/His-CtBP binding, 1536-well; active compounds read low; control for the full effect not named in the record; in the data active means activity change below about -65%; inconclusive means about -30% to -65%; inactive means above about -30%; further: on the % scale 0 is the no-effect control and ±100 the full control effect
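GST-E1A and His-tagged CtBP (125 nM each as 5X stock) were preincubated with pin-transferred compound for 2 h at 37 °C in the dark, then glutathione donor and nickel acceptor beads were added for 1 h before AlphaScreen reading.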
Six1-Eya2 blk: Six1/Eya2 interaction inhibition; Q15475+O00167; AlphaScreen GST-Six1/His-Eya2 binding, biochemical; active compounds read low; control for the full effect not named in the record; activity change, % (test concentration not listed); 360,000 tested, 0.56% active; in the data active = activity change below about -65%; inconclusive = about -30% to -65%; inactive = above about -30%; further: on the % scale 0 is the no-effect control and ±100 the full control effect
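Homogeneous AlphaScreen proximity assay pairing GST-Six1 with His-tagged Eya2 (added as 5X mix: 250 nM and 500 nM) in 50 mM Tris pH 8.0, 300 mM NaCl, 1 mM TCEP. Glutathione donor and nickel acceptor beads; 1 h, 37 °C, dark.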
D2 potentiator: potentiates the human D2 dopamine receptor allosterically | 360,000 tested, 0.23% active | AID 624464 | P14416 | potentiation, % (concentration not given with the values) | DiscoveRx D2 beta-arrestin cells, luminescence, 90 min; 100% = 57 uM dopamine signal; active = potentiation of 50% or more; inconclusive = 30% to 50%; inactive = 30% or less;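 further: compound concentration not given in the record; tested on top of an EC20 dose of dopamine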
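D2 cells co-treated with compound plus 50 nM dopamine (EC20) for 90 min at 37 deg C to detect potentiation. Beta-arrestin recruitment was read as enzyme-fragment luminescence after 1 h at ambient temperature. Full response was set by 57 uM dopamine.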
* marks the source's active call; other numbers are inactive results; ? = inconclusive; . = not tested or not shown; [ ] = dose if it differs, or a comment.

SMILES	D2 agonist	PINK1 modulator	TRPML1 ag	CtBP-E1A blk	Six1-Eya2 blk	D2 potentiator
c1ccc(-c2nc(-n3nc4ccccc4n3)nc3ccccc23)cc1	-0.3	0.1%	1.0	-1	-1	-22
CC(CCc1ccccc1)NC(=O)Cc1ccc([N+](=O)[O-])cc1 (configuration not stated)	-4.5	-0.1%	1.6	6	4	-29
Cc1ccc2nc3c(cc2c1)c(NC(=O)c1ccccn1)nn3CC(C)C	0.3	.	0.1	-4	9	-3
CN(C)CCNC(=O)C(=O)c1c(-c2ccccc2)cc2ccccn12	-1.2	5.7%	0.7	-24	-8	-16
COc1cccc(/C=N\Nc2nncc(-c3ccccc3)n2)c1	-2.1	7.5%	4.4	-2	-1	-5
Cc1cccc(Nc2ncnc3nc[nH]c23)c1	-0.2	2.7%	-0.8	2	-1	-3
Cc1cc(C(=O)COc2cccc([N+](=O)[O-])c2)c(C)n1C1CC1	-2.4	3.9%	0.6	.	-11	1
CCOC(=O)C(CC)n1cnc2sc3c(c2c1=O)CCC3 (configuration not stated)	-1.6	3.9%	-1.7	-1	-5	-12
O=C(Nc1ccccc1)/C(=C/c1ccc([N+](=O)[O-])cc1)NC(=O)c1ccco1	-3.1	8.5%	0.4	1	1	-2
COc1ccccc1Nc1nc(C)c(C(=O)Nc2ccccc2)s1	0.0	-1.5%	0.6	2	-2	-4
O=C(COc1cccc(C(F)(F)F)c1)NCCCN1CCCC1=O	1.5	2.6%[38.3 µM]	1.9	4	-2	-4
COc1ccccc1CCNC(=O)c1c(N)[nH]c(C(=O)c2ccccc2)c1-c1ccc(Br)cc1	.	0.0%	-0.6	-7	-19	.
Cc1sc(NC(=O)c2ccccc2)c(C(=O)NCCN(C)C)c1C	0.0	-8.8%[38.3 µM]	0.3	1	2	-4
N#CC1=C(N)Oc2cc3c(cc2C1c1ccc(Cl)cc1)OCO3 (configuration not stated)	-2.9	.	2.4	8	-1	-10
CCn1c(=O)n(CC)c2cc(NC(=O)C(C)c3ccccc3)c(Br)cc21 (configuration not stated)	-2.2	1.3%	.	.	24	10
CCN(CC)CCNC(=O)c1ccc(NC(=O)Cc2cccc3ccccc23)cc1	-1.4	4.6%	0.3	-3	-8	-2
CCN1C[C@@H]2[C@@H]3C(=O)N(C)C(=O)[C@@H]3[C@](C)(C1=O)N2C(=O)c1ccc(Br)cc1	-1.3	1.1%	-0.5	7	1	3
O=C(Cc1c[nH]c2ccccc12)N/N=C/c1ccccc1O	-2.2	1.9%	-0.9	.	-28	-12
CN(CC(=O)Nc1ccc(Cl)c(C(F)(F)F)c1)C(=O)c1ccc(N2CCOCC2)c([N+](=O)[O-])c1	-5.5	10%	0.4	?	-16	-17
COc1cccc(C(c2nnnn2CS(=O)(=O)c2ccc(C)cc2)N2CCN(C)CC2)c1OC (configuration not stated)	-2.5	-0.9%	-0.1	2	-2	-23
CCc1nc2ccc(C(=O)N(C)CCN(C)C)cn2c1N(CC)C(=O)NCCc1ccccc1	-4.4	1.1%	-0.3	0	2	-35
CCCC(=O)NC(=S)Nc1ccc(NC(=O)C(C)C)c(OC)c1	-9.6	0.6%	0.7	.	3	-9
O=C(OCC(=O)c1ccc(Cl)s1)c1ccc(CO)cc1	-0.3	0.8%	1.2	-1	-10	-1
COc1cc(C(=O)NNC(=S)NCc2ccco2)cc(OC)c1OC	-0.8	0.1%	2.5	6	-5	-9
Cc1noc(C)c1C(=O)OCC(=O)NCc1ccc(Cl)cc1	-0.3	-1.2%	0.0	.	5	-5
COC(=O)c1sc(NC(=O)/C=C/c2ccc(C)o2)nc1C	-2.3	8.8%	-0.8	-7	1	-16
O=C(NCCCN1CCCC1=O)c1cncc(Br)c1	0.1	-1.2%	0.9	-10	2	-5
COc1ccc(CCN2C(=O)C(O)=C(C(=O)c3ccco3)C2c2cccs2)cc1OC (configuration not stated)	-0.9	1.1%	0.1	3	-8	-14
CC1CN(C2CCCCC2)c2nc3c(c(=O)n(C)c(=O)n3C)n2C1 (configuration not stated)	-0.5	0.9%	1.3	-1	0	-8
O=C(c1cc(-c2ccccc2)nn1CC1CC(c2cccnc2)=NO1)N1CCOCC1 (configuration not stated)	0.5	-0.4%	-0.5	6	4	-19
O=S1(=O)CCN2C(=N1)Sc1c2ccc2c1CCCC2	4.3	.	0.0	6	-8	7
CCOC(=O)C1(Cc2ccccc2C(F)(F)F)CCN(CCCn2cccn2)CC1	-2.7	-2.4%	0.1	7	2	-14
COc1ccc(NC(=O)c2ccccc2SC)cc1OC	-4.2	0.5%	-1.0	-2	-6	-7
Cc1ccc(N=Cc2nc(-c3ccc(C)cc3)oc2O)cc1	-4.0	-1.4%	-0.3	.	9	-12
CCn1c(NCCCO)nc2c(c1=O)C(C)(CC)Cc1ccccc1-2 (configuration not stated)	-6.8	2.9%	1.7	-8	2	-7
O=c1c2ccccc2sn1-c1nccs1	-8.2	3.7%	2.5	-8	-7	-23
O=C1CC(Cc2ccccc2)C(=O)N1CCc1ccc2c(c1)OCO2 (configuration not stated)	-1.2	1.0%	-0.9	-2	12	-4
O=C(N/N=C/c1cc([N+](=O)[O-])cc(Br)c1O)C12CC3CCC(CC(C3)C1)C2	-3.6	?	20	.	0	-5
CC1(C)Cc2noc(N)c2C(C)(C)N1OC(=O)c1ccco1	-1.3	-1.2%	-0.3	8	-2	0
CN1CCN(S(=O)(=O)c2ccc(NC(=S)NC(=O)c3ccccc3)cc2)CC1	-4.5	0.4%	0.3	-14	?	-23
CC(C)N(C(=O)[C@H]1C[C@H](CC(=O)NCc2ccco2)C(=O)N2CCc3c([nH]c4cc(-c5ccco5)ccc34)[C@]12C)C(C)C	-3.9	?	0.3	-23	-21	-4
COc1ccc(N(C(=O)CNC(=O)c2ccco2)C(C(=O)NC2CCCC2)c2ccc(C)o2)cc1 (configuration not stated)	-1.0	-0.7%	0.3	-9	2	-9
Cn1c(=O)c2[nH]c(N=NN3CCCCC3)nc2n(C)c1=O	1.3	-1.5%	-0.6	-3	4	-1
CNc1nc(NCc2cccc(OC)c2)c2sccc2n1	-2.0	2.8%	8.9	-1	-9	-19
CC(C)NC(=O)NC(=O)COc1cccc2c1OC(C)(C)C2	-2.5	3.8%	-1.3	10	-4	15

4 successive entries already listed, for reference:
SMILES	D2 agonist	PINK1 modulator	TRPML1 ag	CtBP-E1A blk	Six1-Eya2 blk	D2 potentiator
COc1ccc(N(C(=O)CNC(=O)c2ccco2)C(C(=O)NC2CCCC2)c2ccc(C)o2)cc1 (configuration not stated)	-1.0	-0.7%	0.3	-9	2	-9
Cn1c(=O)c2[nH]c(N=NN3CCCCC3)nc2n(C)c1=O	1.3	-1.5%	-0.6	-3	4	-1
CNc1nc(NCc2cccc(OC)c2)c2sccc2n1	-2.0	2.8%	8.9	-1	-9	-19
CC(C)NC(=O)NC(=O)COc1cccc2c1OC(C)(C)C2	-2.5	3.8%	-1.3	10	-4	15

More entries
SMILES	D2 agonist	PINK1 modulator	TRPML1 ag	CtBP-E1A blk	Six1-Eya2 blk	D2 potentiator
CCCNC(=O)C1(C)CCCN(CCOc2ccccc2)C1 (configuration not stated)	-5.4	0.3%	-0.8	8	3	-6
CN(C)c1ccc(/C=N/NC(=O)c2ccnn2C)cc1	-1.2	1.1%	1.5	.	1	6
CCCNS(=O)(=O)c1cc2c3c(c1)CCN3C(=O)CC2	-4.1	5.1%	-0.4	.	26	-4
O=S(=O)(NCc1ccco1)c1cccc(S(=O)(=O)N2CCOCC2)c1	-2.8	1.5%	-0.4	3	0	-18
O=C1NC(=S)N/C1=C/c1ccc2c(c1)OCO2	-4.3	1.7%	1.3	.	5	-6
O=C(NNC(=O)c1ccc2ncccc2c1)c1ccc(Cl)cc1	-0.7	2.8%	0.0	0	2	-3
COc1ccc2sc(-c3ccc(S(C)(=O)=O)cc3)c(C#Cc3cncn3C)c2c1	-2.2	1.9%	0.7	0	-2	-10
CC[C@]12C(=O)N(C)C[C@H]([C@@H]3C(=O)N(Cc4ccccc4)C(=O)[C@@H]31)N2C(=O)c1ccccc1	0.2	-0.5%	-0.9	4	0	-5
CN(C)S(=O)(=O)c1cc(NC(=O)CN2CCc3ccccc32)ccc1Cl	3.3	1.1%	-0.4	0	-9	-6
COc1ccc(/C=C/C(=O)N(CC(C)C)C2CCS(=O)(=O)C2)cc1 (configuration not stated)	-2.4	1.8%	-0.8	4	-1	-3
O=C1NC(=Nc2ccccc2)S/C1=C\c1ccccc1	-3.6	5.6%	0.7	2	0	-2
CC(=O)Nc1ccc2c(c1)ncn2C	-0.7	1.7%	0.5	2	0	1
O=C(Nc1cccc(OCC(=O)N2CCOCC2)c1)c1cccc(Cl)c1	-1.0	-1.4%	-0.4	-2	-3	-10
O=C(CO)N/N=C/c1c2ccccc2cc2ccccc12	-2.7	0.1%	0.4	2	14	3
O=C(C/C=N/OCc1ccc(Cl)cc1Cl)c1ccccc1	0.6	-1.4%	-0.5	12	19	3
COc1ccc(C=O)cc1OC1C=CCCC1 (configuration not stated)	-1.2	1.0%	2.0	.	8	-6
COc1cccc(NC(=O)CN2CCN(C(=O)c3ccco3)CC2)c1	12	0.6%	-0.4	0	24	-13
C/C(=N\Nc1ccc(C)c(Cl)c1)c1ccncc1	0.5	3.3%	-0.4	11	6	-7
Cn1c(=O)c2c(n3cnnc13)-c1ccccc1CC21CCCC1	-1.4	-5.4%[38.3 µM]	-0.2	5	4	2
Cc1ccc(CC(=O)NC2CCCc3ccccc32)cc1C (configuration not stated)	-1.4	1.0%	-0.1	3	11	-3
CCOC(=O)c1csc(-c2ccc([N+](=O)[O-])cc2)n1	3.4	0.3%	-0.2	-2	1	-4
O=C(NC(=S)N1CCCC(C(F)(F)F)C1)c1ccc(F)cc1 (configuration not stated)	-7.4	5.4%	0.3	3	1	-11
COC(=O)C(Cc1ccccc1)NC(=O)CC(C)CC(=O)Nc1ccc(C)cc1 (configuration not stated)	-1.4	0.0%	0.6	8	-3	-4
CCOc1ccc(C(=O)CCC(=O)O)cc1	-3.9	-1.9%[38.3 µM]	-0.3	3	3	3
Cc1cccc(N2CC(C(=O)NC3CCCCCC3)CC2=O)c1C (configuration not stated)	-1.4	-0.3%	0.6	0	1	-3
Cc1ccc2nc(NC(=O)CN3CCOCC3)sc2c1	0.1	.	0.5	0	4	-23
CCCCNC(=S)N1CCN(C(c2ccccc2)c2ccccc2)CC1	-2.1	0.7%	0.8	12	-2	-8
COc1cccc(C(=O)Nc2ccccc2F)c1	-0.5	-1.5%	0.0	1	0	-4

4 entries from above, with two lines to a compound:
Order of values – D2 agonist | PINK1 modulator | TRPML1 ag | CtBP-E1A blk | Six1-Eya2 blk | D2 potentiator
CCOc1ccc(C(=O)CCC(=O)O)cc1
 : -3.9 | -1.9%[38.3 µM] | -0.3 | 3 | 3 | 3
Cc1cccc(N2CC(C(=O)NC3CCCCCC3)CC2=O)c1C (configuration not stated)
 : -1.4 | -0.3% | 0.6 | 0 | 1 | -3
Cc1ccc2nc(NC(=O)CN3CCOCC3)sc2c1
 : 0.1 | . | 0.5 | 0 | 4 | -23
CCCCNC(=S)N1CCN(C(c2ccccc2)c2ccccc2)CC1
 : -2.1 | 0.7% | 0.8 | 12 | -2 | -8
